# Rce1 inhib = yeast Ras-converting enzyme inhibition; Q03530; yeast membranes, quenched prenylated peptide cleavage fluorescence; calls only; actives 0.27% (n = 290,000); AID 2563;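 active = fall in fluorescence gain of 50% or more versus controls, with final raw signal at or below 3038400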;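 note: plate controls were neutral control wells for no effect and wells lacking membranes for full effect; tested at 10 µM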
# CSC inhib = blocks cancer stem cells; cancer stem cell-like cells viability, luminescence; actives 1.1% (n = 300,000); inhibition, % at 7.5 µM;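 active = mean at 75% or more and at least half the replicates too; tested in HMLE shEcad cells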;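 note: 0% = median of negative and 100% = median of positive control wells; the first replicate is given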
# Env fusion inh = blocks HIV Env-driven cell-cell fusion | HeLa-JRFL Env/CEM21 cell fusion, luciferase | inhibition, % at 12.3 µM | actives 1.1% (n = 360,000) | AID 651610;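 active = mean replicate inhibition score of at least 50 and every replicate individually at or above 50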;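 note: 0% = plate neutral controls and 100% = maraviroc near 300 nM; one replicate is shown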
# MT1-MMP act inh = inhibitors of human MT1-MMP activation; P50281; HT1080 RFP-PRO-GFP cells, GFP/RFP ratio fluorescence, overnight; percent of plate control window, DMSO zero; GFP/RFP ratio change, % at 20 µM; actives 0.061% (n = 360,000);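 active = GFP/RFP ratio change of at least 30% with cell ATP level not reduced by more than half and red fluorescence within 50% of control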; note: strong numbers were not always called active
#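 Assay system: HT1080 cells carrying an RFP-PRO-GFP reporter | Dosing: Single dose of 20 µM compound, 1% DMSO final | Incubation: Cells overnight before dosing, compound overnight, 37 °C, 5% CO2 | Evaluation: GFP/RFP fluorescence ratio | Control set: DMSO and RFP-L50D-GFP cell wells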
# eIF4H inh = inhibitors of RNA binding by human eIF4H | actives 0.94% (n = 290,000) | AID 2012 | Q15056 | inhibition, % at 35 µM | eIF4H fluorescence polarization binding assay;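 active = 50% or more with normal probe brightness, or confirmed in later tests; about a fifth of its hits are not listed in these tables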;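 note: calls also rest on retests at 20 µM and on dose response follow-up; 0% = protein and probe with vehicle and 100% = probe without protein; strong numbers were not always called active; many hits fall short of the cut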
# Yeast UUG start = modulators of start codon recognition fidelity in yeast; S. cerevisiae UUG-firefly luciferase reporter, luminescence/redox ratio; activity score, % at 18.7 µM; actives 0.13% (n = 350,000); AID 602363;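 active = replicate mean at a twofold rise or more, about +100% in these data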;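 note: firefly luciferase made from a UUG start codon reports start codon fidelity; reporter light over untreated wells divided by growth signal over untreated wells; some hits fall short of that in this replicate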
# PABP polyA inh = PABP-poly(A) binding inhibition. P11940. PABP-poly(A) RNA binding, fluorescence polarization. inhibition, % at 35 µM. actives 1% (n = 290,000);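 active = 50% or more with normal probe brightness, or confirmed in later tests; about a fifth of its hits are not listed in these tables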;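 note: calls also rest on retests at 20 µM and on dose response follow-up; controls were probe without protein and protein plus probe with vehicle; some compounds called inactive have numbers as strong as hits; many hits fall short of the cut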
# Target sequence (P11940 whole entry, looked up): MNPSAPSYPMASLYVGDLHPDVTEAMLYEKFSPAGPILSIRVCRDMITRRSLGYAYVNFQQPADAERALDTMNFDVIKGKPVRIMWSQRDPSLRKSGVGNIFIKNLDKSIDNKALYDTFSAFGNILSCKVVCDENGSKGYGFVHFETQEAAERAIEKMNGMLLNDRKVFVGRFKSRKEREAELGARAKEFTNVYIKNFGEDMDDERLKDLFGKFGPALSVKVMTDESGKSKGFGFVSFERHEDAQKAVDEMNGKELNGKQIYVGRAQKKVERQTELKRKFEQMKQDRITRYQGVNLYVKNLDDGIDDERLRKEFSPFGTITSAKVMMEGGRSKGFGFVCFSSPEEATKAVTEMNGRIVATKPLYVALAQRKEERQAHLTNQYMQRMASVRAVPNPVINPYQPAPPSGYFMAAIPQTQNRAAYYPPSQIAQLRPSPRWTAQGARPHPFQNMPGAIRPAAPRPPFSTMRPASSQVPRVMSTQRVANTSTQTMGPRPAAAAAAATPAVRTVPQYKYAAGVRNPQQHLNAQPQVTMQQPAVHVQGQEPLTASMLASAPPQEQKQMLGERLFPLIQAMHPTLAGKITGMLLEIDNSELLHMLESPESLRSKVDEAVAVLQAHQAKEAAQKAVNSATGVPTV
# eIF4H inh retest = recorded beside eIF4H inh, whose call it bears; inhibition, %; compound at 20 µM; confirmation average;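 mean of two retest wells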
# PABP polyA inh retest = second read-out of PABP polyA inh, no call of its own (marks repeat the call); inhibition, %; compound at 20 µM; confirmation repeats;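 mean of two retest wells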
# MT1-MMP act inh RFP = recorded beside MT1-MMP act inh, whose call it bears; RFP signal change, %; measured here: RFP expression control read;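 0 = vehicle wells; hits needed this value within 50% of zero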
# Starred values were filed as active, the others as inactive; i = inactive; x = not tested or not shown; & = joins results of further samples; [ ] = another dose, or the depositor's remark.
SMILES,Rce1 inhib,CSC inhib,Env fusion inh,MT1-MMP act inh,MT1-MMP act inh RFP,eIF4H inh,Yeast UUG start,PABP polyA inh,others
O=S(=O)(CCN1C=CC(C(F)(F)F)=NCC1)c1ccc(F)cc1,i,3,4,1,4,-8,-17,-3,
O=C(/C=C/c1ccccc1)c1ccc2ccccc2c1,x,x,9,-3,2,x,-11,x,
CCOCCCNC(=S)Nc1ccc2nc(N3CCCC3)cc(C)c2c1,i,1,x,9,5,-5,-15,-6,
O=C(/C=C/c1ccccc1[N+](=O)[O-])NCC1CCCO1 (stereo unspecified),i,2,4,2,2,-11,x,-3,
COCCNC(=S)N/N=C/c1ccccc1C(=O)O,i,0,5,0,5,-2,-25,8,
O=C1CCC(C(=O)NCc2cccnc2)N1 (stereo unspecified),i,-20,-40,6,8,-4,-27,8,
O=C1CN(C(=O)c2cc3ccccc3o2)c2ccccc2N1,i,4,-19,0,-2,2,3,-4,
CCOC(=O)N1CCN(C(=O)Nc2ccccc2)CC1,i,-3,-2,6,8,2,x,-1,
CCn1c(CNc2ccc(C)cc2)nnc1SCC(N)=O,i,-2,-17,6,5,2,-26,-1,
CN(C)CCNC(=O)c1c(CSc2ccc(Cl)cc2)noc1C(=O)NCc1ccccc1,i,-3,16,1,0,x,-13,x,
CN(C)c1ccc(C(C(=O)NCc2ccccc2)N(Cc2ccco2)C(=O)c2snc(C(N)=O)c2N)cc1 (stereo unspecified),i,18,-7,-13,-2,-13,-24,-1,
Cc1cc(=O)[nH]c(SCC(=O)O)c1C#N,i,-12,x,0,2,5,-6,4,
Cc1c(-c2ccccc2)n(O)[n+]([O-])c1-c1ccccc1,x,x,-19,-6,-3,x,-22,x,
N#Cc1c(/N=C/C=C/c2ccccc2)sc2c1CCCC2,i,-8,x,-3,1,2,-31,1,
CCOc1ccc(S(=O)(=O)N2CCCC(C(=O)NCc3cccnc3)C2)cc1Cl (stereo unspecified),i,-31,15,3,-4,-10,-5,4,
Cc1cccc(-c2nnc(-c3ccc(N)cc3)o2)c1,i,6,-372,5,-8,-7,-20,-13,
CCc1nc2ccccc2n1CC(=O)N1CCN(Cc2ccccc2)CC1,i,1,-17,1,0,-8,x,0,
CC(C)n1c(NCCc2ccccc2)nc2c1c(=O)n(C)c(=O)n2C,i,13,110*,-15,-25,-3,-11,-3,
COC(=O)c1noc(-c2ccc(C)cc2)n1,i,x,-31,10,3,2,-11,5,
Cc1cc(C(=O)Nc2cc(C)on2)on1,i,-5,-11,-1,6,-4,27,-5,

# Continued; it opens with the 2 that closed the last part.
SMILES,Rce1 inhib,CSC inhib,Env fusion inh,MT1-MMP act inh,MT1-MMP act inh RFP,eIF4H inh,Yeast UUG start,PABP polyA inh,others
COC(=O)c1noc(-c2ccc(C)cc2)n1,i,x,-31,10,3,2,-11,5,
Cc1cc(C(=O)Nc2cc(C)on2)on1,i,-5,-11,-1,6,-4,27,-5,
CCOC(=O)C1(C)CCN1C(=O)c1cccc(C(F)(F)F)c1 (stereo unspecified),x,x,-248,8,-2,x,-19,x,
CC(C)c1cc(NC(=O)c2ccccc2)cc(C(C)C)c1O,i,-9,10,2,0,-14,21,4,
O=C(COC(=O)CSc1ccc2ccccc2c1)NC1CC1,i,-1,-3,-5,3,-14,17,4,
CC(=O)Nc1ccc(/C=N/NC(=O)c2cccc(S(=O)(=O)N3CCOCC3)c2)cc1,i,-7,13,-1,1,-13,x,2,
Cc1ccc(NC(=S)NCc2ccccc2)cc1C,i,-14,-17,-1,-4,x,x,x,
COc1cc(/C=C/C(=O)O)cc(S(=O)(=O)Nc2ccccc2Cl)c1OC,i,-1,-7,0,1,11,x,6,
COc1ccc(CCNC(=O)c2cccs2)cc1OC,i,-1,-9,2,-2,-3,-19,-5,
O=C(C1=C[C@H](c2ccccc2)C[C@H](OCc2ccc(CO)cc2)O1)N1CCOCC1,i,7,0[16.7 µM],1,-1,-10,-4&-11,4,
O=C(COC(=O)c1ccncc1)c1ccccc1,i,x,5,-2,5,-13,x,52,eIF4H inh retest=-9;PABP polyA inh retest=3
CCOC(=O)N1CCN(C(=O)C2CCN(S(=O)(=O)c3ccc(C)cc3)CC2)CC1,i,2,-10,-3,-2,-3,1,-1,
COc1ccc(N(CC(=O)Nc2ccccc2OC)S(=O)(=O)c2ccc(NC(C)=O)cc2)cc1,i,63,2,-7,-17,3,-22,-10,
COCCn1c(C)cc(C(=O)COc2ncnc3ccc(Br)cc23)c1C,i,-7,4,-3,-4,-1,-12,1,
CN(CC(=O)NC(=O)NC1CCCCC1)c1ccccc1,x,-2,x,5,3,x,-8,x,
COC(=O)C1CCN(Cc2c(C(=O)N3C[C@@H](C)O[C@@H](C)C3)nc3ccc(Cl)cn23)CC1,i,-6,5,0,6,-1,-7,0,
COc1ccccc1Cc1c(-c2ccc(Cl)cc2)nc2ccc(Br)cn12,x,x,-85,-5,3,x,-11,x,
CCOC(=O)C1=C(c2ccccc2)Nc2ncnn2C1c1cccc(O)c1 (stereo unspecified),i,10,15,0,1,5,-19,18,
Cc1ccc(NC(=O)COC(=O)CNC(=O)c2ccc(Br)cc2)c(C)c1,i,6,-5,1,1,7,x,-4,
CC(=O)C1=C(C)NC2(O)c3ccccc3C(=O)C12O (stereo unspecified),i,-16,-24,-19,-2,-4,x,-6,
CC(C)c1c(O)nc(SCc2ccc(F)cc2)[nH]c1=O,i,16,-8,-2,-5,-6,-7,5,
CS(=O)(=O)c1ccc(NC(=O)c2ccc3c(c2)S(=O)(=O)N=C2CCCCCN23)cc1,x,-3,-9,1,-2,x,-4,x,

# Sorted by formula weight (low to high): part of the list above
SMILES,Rce1 inhib,CSC inhib,Env fusion inh,MT1-MMP act inh,MT1-MMP act inh RFP,eIF4H inh,Yeast UUG start,PABP polyA inh,others
O=C(COC(=O)c1ccncc1)c1ccccc1,i,x,5,-2,5,-13,x,52,eIF4H inh retest=-9;PABP polyA inh retest=3
CN(CC(=O)NC(=O)NC1CCCCC1)c1ccccc1,x,-2,x,5,3,x,-8,x,
CC(C)c1c(O)nc(SCc2ccc(F)cc2)[nH]c1=O,i,16,-8,-2,-5,-6,-7,5,
COc1ccccc1Cc1c(-c2ccc(Cl)cc2)nc2ccc(Br)cn12,x,x,-85,-5,3,x,-11,x,
CS(=O)(=O)c1ccc(NC(=O)c2ccc3c(c2)S(=O)(=O)N=C2CCCCCN23)cc1,x,-3,-9,1,-2,x,-4,x,

# Returning to the listing, starting 2 compounds before the break.
SMILES,Rce1 inhib,CSC inhib,Env fusion inh,MT1-MMP act inh,MT1-MMP act inh RFP,eIF4H inh,Yeast UUG start,PABP polyA inh,others
CC(C)c1c(O)nc(SCc2ccc(F)cc2)[nH]c1=O,i,16,-8,-2,-5,-6,-7,5,
CS(=O)(=O)c1ccc(NC(=O)c2ccc3c(c2)S(=O)(=O)N=C2CCCCCN23)cc1,x,-3,-9,1,-2,x,-4,x,
Cc1ccc(S(=O)(=O)N/N=C/c2ccccc2O)cc1,i,-8,-16,-1,3,-2,-9,1,
CC(C)CC1Nc2ccc(C(=O)NCCCN3CCCCC3C)cc2NC1=O (stereo unspecified),i,-1,0,-3,2,x,-3,x,
O=C(CN1CCN(C(=O)c2ccco2)CC1)NCc1ccc(Cl)cc1,i,-6,x,-5,2,2,-8,-7,
CCOc1ccc2[nH]c(C(=O)N/N=C/c3cccc(OC)c3OC)cc2c1,i,54,2,-2,-2,-11,-11,3,
COC(=O)NCCOc1cc(C)ccc1C,x,-13,x,5,2,-4,-1,-8,
CC(NC(=O)COC(=O)C12CC3CC(CC(O)(C3)C1)C2)c1ccccc1 (stereo unspecified),x,3,15,2,4,x,x,x,
Cc1cccc(C)c1Nc1n[nH]c(=S)s1,x,x,6,-2,5,x,15,x,
Cc1ccc(C(=O)NNc2c3ccccc3nc3ccccc23)cc1,i,7,12,37*,-11*,0,1,0,
CCOc1cc(/C=N/NC(=O)c2cccnc2)cc(Br)c1OCC(N)=O,i,-11,18,-1,3,-9,x,-2,
O=C(O)CSc1nnc(COc2cccc3ccccc23)n1Cc1ccccc1,i,-8,-14,3,5,-5,x,-7,
O=C(Oc1cc(=O)oc2ccccc12)c1ccco1,i,12,-47,-4,2,-5,-10,-7,
O=C(O)c1ccc(/C=N/NC(=S)NC2CCCCC2)cc1,i,-9,-10,-5,-2,-2,-21,-4,
C=CCn1c(COc2ccc(OC)cc2)nc2ccccc21,i,-29,-25,-3,-5,-4,-18,4,
COc1ccc(/C=C(/NC(=O)c2ccccc2)C(=O)Nc2cccc(C(=O)O)c2)cc1,i,-6,x,4,9,10,-10,9,
Cc1nc(C)c(-c2csc(Nc3ccc(F)cc3)n2)s1,i,31,-21,5,-25,0,x,9,
CCSc1ncc(Cl)c(C(=O)Nc2ccc(S(=O)(=O)Nc3onc(C)c3C)cc2)n1,i,x,x,1,-3,5,-18,14,
COc1ccc(C(=O)N2CCN(Cc3ccccc3C(F)(F)F)CC2)cc1,i,0,-3,2,2,9,-3,14,
Cc1cc(NC(=O)c2sc(Nc3ccc(F)c(Cl)c3)nc2N)no1,i,3,-18,6,-1,5,-4,4,
COc1ccc(Cc2nnc(NC(=O)C3CCCO3)s2)cc1OC (stereo unspecified),i,5,-4,-1,-6,-7,2,0,
Clc1ccc(-n2nnc(-c3cccnc3)n2)cc1Cl,i,4,x,-2,-1,-3,-9,2,
COC(=O)C1=C(C)N(c2ccc(C)c(C)c2)/C(=C/c2ccc(O)cc2)C1=O,i,-23,-10,4,4,-7,x,-18,
CS(=O)(=O)N1CCN(CC(=O)NC2CCCCC2)CC1,i,-2,7,3,3,-5,x,-10,
CSc1ncc(Cl)c(C(=O)Nc2cccnc2)n1,i,-12,-4,-2,0,-8,4,3,
CC(C)N(Cc1ccccc1)S(=O)(=O)N(C)C,i,0,-94,2,2,-8,-10,1,
Cc1noc(C)c1C(=O)Nc1nc(-c2ccc([N+](=O)[O-])cc2)cs1,i,14,15,-5,-21,-11,5,7,
ONC(=Nc1ccccc1)c1ccc(Cl)cc1,i,-5,14,-1,4,-1,-12,-3,
COC(=O)[C@]1(C)N[C@H](c2ccc(-c3cccc(Cl)c3)cc2)[C@@H]2C(=O)N(C)C(=O)[C@@H]21,x,x,6,-1,-1,x,9,x,
O=C(Oc1ccc[nH]c1=O)c1ccccc1,x,x,6,0,3,x,-13,x,
Cc1cc(Nc2ccc(C)c(F)c2)n2ncnc2n1,i,x,-64,6,6,41,-10,7,
CCC(C)(C)n1nnnc1CN1CCSCC1,i,x,x,12,-2,46,1,48,
O=C(NCCc1ccccc1)c1ccc(-c2ccccc2C(F)(F)F)o1,x,-14,-28,x,x,2,x,1,
O=C(CCCN1C(=O)S/C(=C/c2ccccc2)C1=S)Nc1ccc(C(=O)O)cc1,i,-7,x,1,0,-9,-20,2,
